Screening data: PubChem, several laboratories
Arbovirus inh = arbovirus infection inhibition. AID 1251. inhibition, % at 10 µM. arbovirus infection cell-based antiviral screen. 0.37% of 200,000 active;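 active means inhibition from about 30%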;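 further: bluetongue infection of BSR cells; cell survival read as ATP light after 72 h; 0% = infected wells without compound and 100% = uninfected wells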
YopH PTP inh = blocks Yersinia enterocolitica YopH tyrosine phosphatase; fluorescence Ex485/Em525; inhibition, %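 (about 10 µM by stock and volumes)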; 0.16% of 140,000 active; AID 898;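 active means inhibition of 50% or more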;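 further: controls were vehicle for no effect and minimum signal wells for full effect; inactives centre near -20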
Mtb bLac sens = beta-lactam sensitization of Mtb H37Rv. inhibition, % at 25 µM. 0.27% of 330,000 active. M. tuberculosis H37Rv growth with meropenem, percent inhibition; hits of this screen are not shown here;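 active means about 74% or more and at least 40 points above the plate without the antibiotic, then above 30% in a dose series; inconclusive means first-round hits that could not be retested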;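 further: growth measured after seven days incubation then overnight dye step; 0% = bacteria only wells and 100% = bacteria with antibiotic; twin plates without the antibiotic show which effects depend on it; some results filed as inactive read as strong as hits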
Mtb growth = M. tuberculosis H37Rv growth inhibitors, H37Rv strain (AID 1626); M. tuberculosis H37Rv growth inhibition; higher % means a stronger effect; inhibition, % at 10 µM; hits with a dose series show IC50 in µM; 0.95% of 220,000 active;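 active means confirmed in a dose series; inconclusive means inhibition above 80% but not taken into the dose series; inactive means below 80% or under 30% at every dose of the series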;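 further: bacteria incubated seven days before Alamar blue readout; 0% = bacteria only wells and 100% = bacteria with antibiotic wells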
RecA splice inh = Mtb RecA intein splicing inhibition. P9WHJ3. 0.75% of 290,000 active. inhibition, %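 (about 9 µM by stock and volumes)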. cell-free RecA intein splicing, fluorescence. AID 2221; in the data active means inhibition above about 30%; inconclusive means no clear call, values can overlap the other calls;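 further: 0% = vehicle wells and 100% = reference inhibitor control wells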
Target sequence (P9WHJ3 whole entry, looked up, canonical isoform): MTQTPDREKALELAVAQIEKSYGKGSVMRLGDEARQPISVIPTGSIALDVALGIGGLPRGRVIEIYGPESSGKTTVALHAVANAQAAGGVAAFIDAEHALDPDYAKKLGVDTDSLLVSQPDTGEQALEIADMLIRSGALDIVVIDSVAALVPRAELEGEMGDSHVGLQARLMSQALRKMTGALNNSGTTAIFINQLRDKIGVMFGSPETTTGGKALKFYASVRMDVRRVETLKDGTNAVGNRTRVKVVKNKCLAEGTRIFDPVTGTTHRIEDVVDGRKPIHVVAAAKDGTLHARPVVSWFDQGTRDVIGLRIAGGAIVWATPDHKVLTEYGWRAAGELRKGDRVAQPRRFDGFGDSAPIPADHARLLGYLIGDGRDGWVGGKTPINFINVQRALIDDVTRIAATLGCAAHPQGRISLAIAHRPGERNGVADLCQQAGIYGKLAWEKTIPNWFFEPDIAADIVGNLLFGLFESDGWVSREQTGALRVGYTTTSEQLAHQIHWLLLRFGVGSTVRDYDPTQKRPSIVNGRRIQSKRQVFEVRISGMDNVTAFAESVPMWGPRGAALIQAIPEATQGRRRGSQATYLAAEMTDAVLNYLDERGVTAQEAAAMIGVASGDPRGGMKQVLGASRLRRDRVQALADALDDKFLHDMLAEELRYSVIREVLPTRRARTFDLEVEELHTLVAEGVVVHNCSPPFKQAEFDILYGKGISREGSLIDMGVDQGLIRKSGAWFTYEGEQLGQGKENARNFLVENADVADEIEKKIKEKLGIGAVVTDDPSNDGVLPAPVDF
Arbovirus inh repeat = second read-out of Arbovirus inh, no call of its own (marks repeat the call); inhibition, %; measured here: 10K subset replicate screen; many hits read low in the repeat;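 first of two repeat runs on a subset; 0% = infected and 100% = uninfected wells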
An asterisk follows results filed as active; ? = inconclusive; . = not tested or not shown. Some of the compounds tested; count on the stated rates, not on these rows.

SMILES	Arbovirus inh	YopH PTP inh	Mtb bLac sens	Mtb growth	RecA splice inh	others
Cc1cc(Br)ccc1NC(=O)c1sc2ncnc(N3CCN(c4ccccn4)CC3)c2c1C	.	.	95	.	-0.3
CCN(CC)C(=O)CN1C(=O)COCC1=O	1	10	4	4%	-1.0
CC#CC(=O)N1CCC(Oc2cccc(C(=O)NCc3ccccn3)c2)CC1	.	.	-8	.	-0.6
Cc1ccc(NC(=O)C2C3CCC(O3)C2C(=O)O)cc1C (stereo unspecified)	.	.	0	.	-0.7
O=[N+]([O-])c1cc(/C=N\Nc2nc(-c3ccccc3)cs2)ccc1O	48*	.	36	-3%	-0.4
Cc1ccc(NC(=O)c2ccccc2NS(=O)(=O)c2ccc(Cl)s2)cc1S(=O)(=O)N1CCOCC1	-15	-22	-3	-10%	2.6
Cc1cc(C(=O)COc2ccc3ccc(=O)oc3c2)c(C)n1Cc1cccs1	-8	-18	74	-12%	-1.3
CC(=O)O[C@H]1C(=O)[C@]2(C)[C@H]([C@H](OC(=O)c3ccccc3)[C@]3(O)C[C@H](OC(=O)[C@H](O)[C@@H](NC(=O)c4ccccc4)c4ccccc4)C(C)=C1C3(C)C)[C@]1(OC(C)=O)CO[C@@H]1C[C@@H]2O	.	.	-9	4%	-1.7
COc1ccc(C2=NOC(C(=O)NCc3cccnc3)C2)cc1OC (stereo unspecified)	.	.	-11	.	-0.6
CCN(CC)S(=O)(=O)c1ccc(NC(=O)CSc2ncnc3ccccc23)cc1	3	-19	9	12%	-0.2
C[C@H](NC(=O)c1nc[nH]c1C(=O)N[C@@H](Cc1ccccc1)C(=O)OC(C)(C)C)C(=O)OC(C)(C)C	.	.	-8	-2%	0.6
O=C(CN(C(=O)CSc1nnc(COc2ccccc2)o1)c1ccc(F)cc1)NC1CCCCC1	-6	-30	0	7%	3.9
CC(OC(=O)c1ncc(Cl)c(Cl)c1Cl)C(=O)NC1CCCCC1C (stereo unspecified)	.	.	5	.	2.8
NC(=O)C1=C[C@H](c2coc3ccccc3c2=O)C[C@H](OCc2ccc(CO)cc2)O1	2	.	2	.	-1.4
CC1(C)CC(N2CCN(Cc3ccccc3)CC2)=CC(=[N+]2CCCCC2)C1	.	.	-13	-2%	0.4
C/C(=N/Oc1nc(C)cc(C)n1)c1ccc(Cl)cc1Cl	-2	-30	3	3%	1.0
Clc1nnc(Cl)c2c1ncn2Cc1ccccc1	.	.	-8	.	0.2
O=C(COc1cc2oc(=O)c3c(c2cc1Cl)CCC3)NCCN1CCOCC1	.	.	7	.	-2.0
O=C(COc1ccccc1)NC(=S)Nc1cccc2cc(O)ccc12	.	.	1	.	3.4
Cc1ccc(OCC(=O)Nc2ccc(S(=O)(=O)N3CCN(C)CC3)cc2)cc1	-2	-22	-5	1%	-0.8
COc1ccc(NC(=O)NCCCN2CCN(c3cc(C)ccc3C)CC2)cc1	-10	-26	0	18%	-3.3	Arbovirus inh repeat=5
Cc1ccc(S(=O)(=O)NC(=O)c2cc(C)n(CCCn3ccnc3)c2C)cc1	-3	11	-4	-5%	.
Cc1ccc(CNC(=O)COC(=O)c2ccc(S(=O)(=O)N(C)C)cc2)cc1	11	.	-4	2%	-3.6
CCOc1ccc(NS(=O)(=O)c2coc(C(N)=O)c2)cc1	.	.	-1	.	0.2

Random excerpt: 4 compounds from above, in no set order.
SMILES	Arbovirus inh	YopH PTP inh	Mtb bLac sens	Mtb growth	RecA splice inh	others
Cc1cc(C(=O)COc2ccc3ccc(=O)oc3c2)c(C)n1Cc1cccs1	-8	-18	74	-12%	-1.3
CC1(C)CC(N2CCN(Cc3ccccc3)CC2)=CC(=[N+]2CCCCC2)C1	.	.	-13	-2%	0.4
Cc1cc(Br)ccc1NC(=O)c1sc2ncnc(N3CCN(c4ccccn4)CC3)c2c1C	.	.	95	.	-0.3
Cc1ccc(NC(=O)c2ccccc2NS(=O)(=O)c2ccc(Cl)s2)cc1S(=O)(=O)N1CCOCC1	-15	-22	-3	-10%	2.6

Continued.
SMILES	Arbovirus inh	YopH PTP inh	Mtb bLac sens	Mtb growth	RecA splice inh	others
Cc1ccc(NC(=O)c2cnccn2)cc1S(=O)(=O)N(C)C	-10	-32	-1	2%	0.2
CC(C)[C@H](NC(=O)[C@H]1N2C(=O)c3ccccc3C2SC1(C)C)C(=O)NCc1ccco1 (stereo partly specified)	.	.	-5	.	0.4
Cc1cccc(C(=O)NC2CCN(C(=O)Nc3ccccc3C)CC2)c1	-2	.	7	-3%	-2.8
O=C(NCc1cccnc1)c1ccc([N+](=O)[O-])o1	-16	.	99	10%	-19
CCOC(=O)N1CCN(C(=O)c2cn(C)c3ccc(S(=O)(=O)N(CC)CC)cc3c2=O)CC1	.	.	-8	.	0.5
CCC(=O)N1CCN(c2ccccc2NC(=O)COc2cccc(C)c2C)CC1	.	.	-12	.	3.9
Cc1ccc(-c2cccc(CN3CCN(C(C)C)C(CCO)C3)c2)o1 (stereo unspecified)	-25	.	0	3%	2.6
Cn1cnnc1SCC(=O)c1ccc2c(c1)OCCO2	5	-6	5	0%	1.1
COc1cccc(-c2nn(-c3ccccc3)cc2C(=O)Nc2nccs2)c1	-24	-19	100	?	6.6
COc1ccc(S(=O)(=O)N(CC(=O)NCc2ccncc2)Cc2ccccc2)cc1	.	.	1	.	1.4
O=C1C2C(c3ccccc3)CC=CC2[C@H](c2cccc([N+](=O)[O-])c2)N1Cc1ccccc1 (stereo partly specified)	.	.	-7	8%	28
CC1CN(S(=O)(=O)c2cccc(C(=O)NCCCn3ccnc3)c2)CC(C)O1 (stereo unspecified)	0	-35	-8	-5%	-0.1

Molecules above that have a furan ring, fused or not:
SMILES	Arbovirus inh	YopH PTP inh	Mtb bLac sens	Mtb growth	RecA splice inh	others
CCOc1ccc(NS(=O)(=O)c2coc(C(N)=O)c2)cc1	.	.	-1	.	0.2
CC(C)[C@H](NC(=O)[C@H]1N2C(=O)c3ccccc3C2SC1(C)C)C(=O)NCc1ccco1 (stereo partly specified)	.	.	-5	.	0.4
O=C(NCc1cccnc1)c1ccc([N+](=O)[O-])o1	-16	.	99	10%	-19
Cc1ccc(-c2cccc(CN3CCN(C(C)C)C(CCO)C3)c2)o1 (stereo unspecified)	-25	.	0	3%	2.6

Going on with the list:
SMILES	Arbovirus inh	YopH PTP inh	Mtb bLac sens	Mtb growth	RecA splice inh	others
OCCCNc1nc(-c2ccc(Br)cc2)nnc1-c1ccc(Cl)cc1	-5	-38	86	13%	24
Cc1cc(C)cc(NC(=O)Oc2ccccc2N2CCCCC2)c1	.	.	5	1%	-2.4
COc1cc(S(=O)(=O)NCc2ccccc2Cl)ccc1-n1cnnn1	.	.	-10	.	5.8
Cc1ccc2c(cnn2C(=O)CCC(=O)N2CCCCC2)c1	.	.	-1	.	-1.3
CC(NS(=O)(=O)c1ccc(Br)cc1)C(=O)NCc1ccco1 (stereo unspecified)	8	.	1	-1%	-0.3
O=C(O)CN1C(=O)c2ccc(Oc3ccc([N+](=O)[O-])cc3)cc2C1=O	.	.	-1	.	0.1
COC(=O)CCP(=O)(O)Cc1ccccc1CP(=O)(O)CCC(=O)OC	1	-26	1	2%	-0.1
COc1cc(CCC(=O)OCC(=O)Nc2ccc(F)c(F)c2F)cc(OC)c1OC	.	.	1	.	-3.7
CCO/C([O-])=N/c1sn[n+](C)c1C	.	.	-1	-4%	-0.7
O=C(Nc1ccc(S(=O)(=O)N2CCCC2)cc1)C1COc2ccccc2O1 (stereo unspecified)	10	-31	1	-22%	-0.4	Arbovirus inh repeat=4
CC(OC(=O)c1ccc2ncsc2c1)C(=O)N1CCCC1 (stereo unspecified)	9	.	14	1%	-1.1
COc1ccc(/C=N/n2cnc3scc(-c4cccs4)c3c2=O)cc1OC	3	-19	7	-4%	-1.9
CCC(C(=O)N1CC2(C)CC1CC(C)(C)C2)N1C(=O)c2ccccc2C1=O (stereo unspecified)	7	-30	-28	5%	3.1	Arbovirus inh repeat=0
Cc1c(Cc2ccc3c(c2)OCO3)sc(NC(=O)c2cccc3ccccc23)c1C(N)=O	-10	-23	47	13%	-1.3
COc1ccc(NC(=O)CN(C)C(=O)c2cccnc2Sc2ccc(C)c(C)c2)cc1	.	.	-14	.	2.7
CCCc1cc(-c2n[nH]c(=S)n2CC(C)C)cs1	-10	-17	-2	-4%	-4.9
CCc1ccc(NC(=O)C(C)OC(=O)C2CCC(=O)N2)cc1 (stereo unspecified)	-1	.	0	-4%	3.9
C[C@H](NC(=O)c1nc[nH]c1C(=O)N[C@H](C)c1ccccc1)C(=O)OC(C)(C)C	1	.	2	.	-0.2
CCN(CCS(=O)(=O)c1ccc(Cl)cc1)C(=O)Nc1ccccc1	.	.	-3	-14%	1.1
COc1cccc(NC(=O)CSc2nc3ccccc3c(=O)n2Cc2cccs2)c1	1	-6	2	0%	0.9
NC(=O)c1ccsc1NC(=O)COC(=O)c1ccccc1NCc1ccco1	8	-38	-1	1%	0.8
COc1ccc(N(CC(=O)NCc2ccc(Cl)cc2)S(=O)(=O)c2c(C)noc2C)cc1	.	.	0	.	-1.1
C=CC[n+]1c(-c2ccc(C)cc2)csc1Nc1c(C)n(C)n(-c2ccccc2)c1=O	3	.	-6	7%	4.6
COc1ccccc1CNC(=O)C1CCN(S(=O)(=O)c2ccc3nc4c(c(C(=O)O)c3c2)CCCC4)CC1	.	.	-11	.	-4.2
CC1=C(C(=O)N(C)C)C(c2ccccc2OC(F)F)NC(=O)N1 (stereo unspecified)	-2	.	-11	4%	-1.3
CC(C)(C)n1ncc2c(=O)n(CC(=O)N3CCN(c4ccccc4)CC3)cnc21	8	-27	.	1%	.
N#Cc1nc(COc2ccccc2Cl)oc1NCc1ccco1	7	5	8	-5%	1.4
COc1ccc(-n2c(=O)c3ccccc3c3ccccc3c2=O)c(OC)c1	7	-30	15	.	1.0
N=c1c2ccccc2nnn1-c1cccc(C(F)(F)F)c1	1	.	5	2%	-0.4
CN(C)c1nc(-c2ccccc2)c2cc(Cl)ccc2n1	.	.	-2	.	-19
COc1cc2c(cc1OC)CN(CC(=O)NC(=O)NC1CCCCC1)CC2	7	.	-11	1%	-18
COc1ccc(-c2[nH]ncc2CN2CCC(c3ccncc3)CC2)cc1F	.	.	-14	-7%	0.5
O=C(Cn1nc(-c2ccccc2)ccc1=O)Nc1ccc(N2CCN(C(=O)c3cccs3)CC2)cc1	11	.	78	-11%	3.4
Cn1nccc1C(=O)N1CCc2ccccc21	6	35	-8	-4%	-5.3
COC(=O)c1cccc(NS(=O)(=O)c2cccs2)c1C	8	-35	-3	-8%	-1.8
C=CCc1ccc(OCCOc2cccc3cccnc23)c(OC)c1	9	-11	67	10%	7.4

Five neighbouring compounds out of the list so far:
SMILES	Arbovirus inh	YopH PTP inh	Mtb bLac sens	Mtb growth	RecA splice inh	others
COc1ccc(-n2c(=O)c3ccccc3c3ccccc3c2=O)c(OC)c1	7	-30	15	.	1.0
N=c1c2ccccc2nnn1-c1cccc(C(F)(F)F)c1	1	.	5	2%	-0.4
CN(C)c1nc(-c2ccccc2)c2cc(Cl)ccc2n1	.	.	-2	.	-19
COc1cc2c(cc1OC)CN(CC(=O)NC(=O)NC1CCCCC1)CC2	7	.	-11	1%	-18
COc1ccc(-c2[nH]ncc2CN2CCC(c3ccncc3)CC2)cc1F	.	.	-14	-7%	0.5

(listing goes on)
SMILES	Arbovirus inh	YopH PTP inh	Mtb bLac sens	Mtb growth	RecA splice inh	others
CC(=O)Nc1ccc(NC(=O)CSc2ncc(C(=O)Nc3ccc(Cl)cc3)c(=O)n2C)cc1	.	.	-3	.	23
CCn1c(SCC(=O)Nc2cccc(F)c2)nnc1-c1cc2cc(Br)ccc2o1	-2	5	12	4%	7.2
COc1ccc(C(=O)/C=C2/C(=O)Nc3ccccc32)cc1OC	.	.	84	.	1.6
Cc1nn(Cc2ccc(C(=O)NC(C)(C)C)o2)c(C)c1Br	13	-27	5	-2%	1.9
CC(C)C(=O)N1CCC2(CC1)Oc1ccc(F)cc1C(=O)C21CC(c2cccnc2)=NO1 (stereo unspecified)	.	.	.	-12%	0.2
Cc1cnn(CCC(=O)NNC(=S)NCC(C)C)c1	1	-23	4	0%	0.3
Cc1cc(C(=O)N2CCN(c3ncccn3)CC2)c(C)o1	1	10	0	72%	1.4
Cc1nn(Cc2ccc(Cl)cc2)c(C)c1NC(=O)Cn1nc([N+](=O)[O-])c(Cl)c1C	6	-13	7	-5%	-2.4
Cc1ccc2nc(C)c(C(=O)O)cc2c1	8	.	-5	-4%	2.0
O=C(Cc1c(F)cccc1Cl)N/N=C/c1cccs1	.	.	-2	.	0.0
Cc1ccc(-n2c(SCC(=O)NCc3ccco3)nc3sc4c(c3c2=O)CC(C)(C)SC4)cc1	2	-62	77	3%	-0.6
COc1ccc(S(=O)(=O)NC(C)c2ccccc2)cc1C(=O)N1CCCCC1 (stereo unspecified)	.	.	-7	.	-0.1
